# Screens as filed in PubChem BioAssay.
# SNCA viab count – GF-AFC viability counterscreen for inhibitors of alpha-synuclein gene (SNCA) expression; actives 0.12% (n = 150,000); HEK-293-SNCA-luc viability, GF-AFC fluorescence, 24 h; AID 1671193, 2021; Potency, µM (highest dose often 57.1 µM), for the others: top-dose activity change, negative = cytotoxicity, most hits filed as cytotoxic;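 further: potency means the concentration at half of the fitted maximal effect; 0% = DMSO-treated cells and -100% = medium-only wells without cells; nearly all actives have a fitted effect of over 30% in size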
#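 HEK-293-SNCA-luc cells (1500/well) plated 24 h, then exposed 24 h to a dilution series; GF-AFC added 30 min at 37C, fluorescence 405/540 nm; normalised to medium-only and DMSO wells, Hill fit.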
# IP6K1 inh – Primary qHTS assay for small molecule inhibitors of Inositol hexaphosphate kinase 1 (IP6K1) | Inositol hexakisphosphate kinase 1 (Homo sapiens), Q92551 | IP6K1 kinase, ADP-Glo luminescence, 2 h; hits give low values | activity change, % (series mostly up to about 58 µM) | actives 0.81% (n = 140,000) | AID 1645851, 2021; in the data active means activity change below about -25%
# Target sequence (Q92551 whole entry, looked up): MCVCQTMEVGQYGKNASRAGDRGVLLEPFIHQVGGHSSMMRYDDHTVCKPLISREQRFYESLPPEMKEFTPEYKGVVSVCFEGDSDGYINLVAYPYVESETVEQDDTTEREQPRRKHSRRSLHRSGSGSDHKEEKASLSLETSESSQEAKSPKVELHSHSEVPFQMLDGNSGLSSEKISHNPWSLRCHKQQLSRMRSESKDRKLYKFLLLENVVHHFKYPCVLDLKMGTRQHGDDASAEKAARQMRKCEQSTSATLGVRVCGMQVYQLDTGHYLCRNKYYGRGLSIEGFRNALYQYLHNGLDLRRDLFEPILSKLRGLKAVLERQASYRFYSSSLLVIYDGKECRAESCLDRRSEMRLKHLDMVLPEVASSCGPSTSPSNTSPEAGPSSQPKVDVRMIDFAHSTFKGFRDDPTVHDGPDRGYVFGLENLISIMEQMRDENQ
#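 ADP-Glo luminescence measures ADP made by human IP6K1 during a 2 h RT reaction with ATP/IP6 (mix at 1.3 mM/130 uM); top library doses 57.5 and 19.1 uM final.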
# 3T3 cytotox – Cytotoxic Profiling in NIH 3T3 Cell Line of Diverse Libraries Using Quantitative High-Throughput Screening; actives 4.3% (n = 94,000); Potency, µM (doses to about 96.7 µM), without a hit: at the highest dose activity change, negative = cytotoxicity, hits mostly inhibitors; NIH 3T3 viability, CellTiter-Glo ATP luminescence, 48-72 h; further: potency means the concentration at half of the fitted maximal effect; nearly all actives have a fitted effect of over 55% in size
#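 ATP-dependent luminescence (CellTiter-Glo) served as the viability signal for NIH 3T3 cells treated with compound for 48 or 72 hr at 37 °C.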
# HEK cytotox – Cytotoxic Profiling in HEK 293 Cell Line of Diverse Libraries Using Quantitative High-Throughput Screening | Potency, µM (titrated, usually from 115 µM), inactives show top-dose activity change, negative = cytotoxicity, usual class: inhibitors | HEK 293 viability, ATP luminescence (CellTiter-Glo), 48-72 h | actives 6.6% (n = 94,000); further: potency means the concentration at half of the fitted maximal effect; nearly all actives have a fitted effect of over 60% in size
#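 HEK 293 cells at 250 cells/well were exposed to compounds by pintool transfer for 48 or 72 hr at 37 degree Celsius, 5% CO2. Viability was read as ATP-coupled luminescence with CellTiter-Glo after 10 min at room temperature.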
# FLuc inh – Firefly luciferase inhibition profiling of diverse chemical library using quantitative high-throughput screening; actives 2.5% (n = 76,000); purified P. pyralis luciferase, luminescence, biochemical; Potency, µM (top dose mostly 115 µM), for the others: at the top dose activity change, negative = inhibition, usual class: inhibitors; AID 1347043, 2019; Luciferin 4-monooxygenase (Photinus pyralis), P08659; further: potency means the concentration at half of the fitted maximal effect; nearly all actives have a fitted effect of over 65% in size
# Target sequence (P08659 whole entry, looked up): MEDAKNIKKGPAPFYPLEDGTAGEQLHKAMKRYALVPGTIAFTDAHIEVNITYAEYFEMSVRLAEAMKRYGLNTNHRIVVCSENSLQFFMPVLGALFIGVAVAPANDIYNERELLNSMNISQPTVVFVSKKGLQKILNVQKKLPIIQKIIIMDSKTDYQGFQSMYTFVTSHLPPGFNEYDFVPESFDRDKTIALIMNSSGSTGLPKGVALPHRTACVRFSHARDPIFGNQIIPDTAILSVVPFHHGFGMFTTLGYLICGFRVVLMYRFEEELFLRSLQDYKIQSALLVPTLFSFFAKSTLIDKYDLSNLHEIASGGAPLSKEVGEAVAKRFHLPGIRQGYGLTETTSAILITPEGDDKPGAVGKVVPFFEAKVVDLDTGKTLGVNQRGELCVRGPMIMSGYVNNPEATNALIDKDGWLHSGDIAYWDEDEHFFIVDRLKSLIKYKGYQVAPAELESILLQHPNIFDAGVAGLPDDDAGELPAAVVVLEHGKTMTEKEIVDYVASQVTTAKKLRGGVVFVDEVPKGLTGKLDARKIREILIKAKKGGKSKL
#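 FLuc 10nM, D-luciferin 10uM, ATP 10uM, Mg acetate 10mM, Tris acetate pH 7.5, Tween/BSA; cpd qHTS; enzyme added last; CCD luminescence.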
# SNCA expr inh – Primary qHTS assay for inhibitors of alpha-synuclein gene (SNCA) expression; HEK-293 SNCA-luciferase knock-in, luminescence, 24 h; Potency, µM (doses to about 57.2 µM), inactives show top-dose activity change, negative = inhibition, hits mostly inhibitors; actives 0.17% (n = 140,000);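 further: potency means the concentration at half of the fitted maximal effect; plate controls were DMSO cells for no effect and cell-free wells for full effect; nearly all actives have a fitted effect of over 45% in size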
# Numbers without * were called inactive; i = inactive; ? = inconclusive; · = no result given; & = joins results of further samples; [ ] = dose if it differs, or a comment. Unless noted, the call rests on the fitted dose curve; in most records, active means well fitted curve in the direction sought with a large enough effect; inconclusive means small, poorly fitted or top-dose-only effect, or another doubt; inactive means no such curve, though single readings can be large; an effect the other way counts as inactive or inconclusive. Unless noted, on the % scale 0 is the no-effect control and ±100 the full control effect. A portion of the library (hit frequency here may not be typical).
# Every second line gives: SNCA expr inh, IP6K1 inh, SNCA viab count, 3T3 cytotox, HEK cytotox, FLuc inh
COc1cccc(-c2nc3cnccn3c2NCCC(=O)NC2CCCCCC2)c1
    18.5%, 2.0, ?, -13.9%, -21.9%, -7.2%
CN1CC(=O)N(C2CCCNC2)Cc2c(NCCc3ccccn3)ncnc21 (configuration not stated)
    -1.9%, 3.4, 3.5%, i, 1.9%, ·
O=C1C2C=CC=CC2=NC(=S)N1CCN1CCC(=C(c2ccc(F)cc2)c2ccc(F)cc2)CC1 (configuration not stated)
    ?, ·, -5.8%, ·, ·, ·
CC(=O)Nc1ccc(CN2CC(Oc3ccc(F)c(F)c3)C2)cc1
    -3.5%, -8.5, -1.5%, -18.8%, -19.6%, ·
CCNC(=O)[C@@H]1C[C@H](N)CN1C(=O)Cc1ccc(OC)cc1OC
    26.0%, -6.2, 10.5%, 0.3%, -0.7%, 1.6%
N#Cc1ccc(CN2CC(Oc3ccc4c(c3)OCO4)C2)cc1
    20.4%[87.6 µM], 3.0, 0.1%[87.6 µM], ?, ?, -7.3%[172 µM]
CC(C)CNC(=O)C1Cn2cccc2C(=O)N1Cc1ccccc1 (configuration not stated)
    ?, -1.2, -9.4%, -7.1%, -21.4%, -4.6%
CCCN1C(=O)Cc2cc(C(=O)NC3CC3)ccc21
    -4.3%, -5.7, 2.9%, -13.2%, 0.0%, -3.7%
O=C(CCNc1c(-c2ccc(F)cc2)nc2cnccn12)N1CCCCC1
    -2.1%, 15.7, 25.0%, i, -7.4%, -4.3%
Cc1cc(C(F)(F)F)nn1CC(=O)NCC1Cn2cccc2C(=O)N1Cc1ccccc1 (configuration not stated)
    29.8%, -9.7, 0.7%, -19.7%, -21.5%, 0.0%
O=C1CCCCC(Cc2ccccc2)(C(=O)N2CCc3ccccc3C2)N1 (configuration not stated)
    ?, 14.6, -22.6%, -11.8%, ?, 2.0%
COc1ccc(CC(=O)NC2CCN(c3cc(-c4ccc(F)cc4)[nH]n3)CC2)cc1OC
    -5.3%, 10.1, 0.8%, ?, ?, -4.5%
O=C1c2c(nc(COc3cccc(F)c3)n2Cc2ccccc2)NCCN1CC1CC1
    ?, -21.5, -18.3%[87.6 µM], 89.1µM*, 100µM*, 12.8%[172 µM]
O=C(C1CC1)N1CCC2(CC1)CN(c1ccccc1)C2=O
    -28.1%, 5.3, -1.5%, -5.9%, -15.9%, 0.0%
O=C(c1ccc(=O)[nH]n1)N1CCc2ncnc(N3CCOCC3)c2CC1
    -9.3%, 4.6, 0.1%, 1.6%, 4.7%, 5.4%
CCN(CC)C(=O)CC[C@H]1CNC(=O)[C@@H]2[C@@H](CCN2Cc2ccc(F)cc2)N1C
    -0.1%[87.6 µM], -4.1, 8.6%[87.6 µM], i, 0.9%[172 µM], 12.0%[172 µM]
O=C(NCC1Cn2cccc2C(=O)N1Cc1ccccc1)c1ccco1 (configuration not stated)
    -26.1%, -9.6, -2.2%, -6.6%, -0.5%, 6.7%
Cc1nc(C)c(C(=O)N2CCC(N3C[C@H](O)C[C@H]3C(=O)NC3CCCCC3)CC2)s1
    3.1%, 8.7, 7.3%, 0.6%, i, -9.9%
CCn1ccc2oc(C)c(C(=O)N3CCN(c4ccc(Cl)cc4)CC3)c2c1=O
    11.2%, 17.3, 2.8%, ?, ?, -9.3%
COc1ccc(C(=O)N2CCC(c3n[nH]c(=O)n3-c3ccc(C)cc3)CC2)c(OC)n1
    -2.9%, -23.8, -8.7%, ?, 0.1%, ?
COc1ccc(C(=O)N2C(C(=O)N3CCCC3)COC23CCN(C(=O)Cc2ccccc2)CC3)cc1 (configuration not stated)
    12.5%, 3.7, -0.7%, 3.3%, i, -9.3%
O=C1CCN(S(=O)(=O)c2cccs2)CCCC(CO)CCN1 (configuration not stated)
    -6.5%, -3.3, -1.6%, -8.6%, 0.2%, 1.5%
O=C(Nc1ccccc1)N[C@H]1C[C@H]2C(=O)NC[C@@H](CCC(=O)N3CCCCC3)N2C1
    0.5%[87.6 µM], 6.1, 5.9%[87.6 µM], -2.5%[138 µM], 4.4%[172 µM], -10.2%[172 µM]
CNC(=O)[C@@H]1CN(S(=O)(=O)c2ccc(F)c(C)c2)C[C@H]1C1CCN(C)CC1
    ?, -12.2, 5.7%[12.5 µM], -6.2%, ?, -7.9%
O=C(c1ccc(F)cc1F)N1CCC2(CC1)OCC(C(=O)N1CCCC1)N2C(=O)c1ccccc1 (configuration not stated)
    -11.2%, -0.8, 6.3%, -5.3%, 0.8%, 5.2%
CCS(=O)(=O)N1CCC(CC(=O)NCc2ccccc2)C1 (configuration not stated)
    -4.8%, -10.5, -2.2%[12.5 µM], -17.2%, 0.3%, -14.4%
CC(C)NS(=O)(=O)c1cc(C(=O)O)cc(-c2cccc3c2OCC3)c1
    -22.8%, 23.9, -3.6%, 0.5%, i, -11.9%
CN(C)CCN(C)[C@H]1[C@@H]2OC[C@@H](O2)[C@@H](NC(=O)Nc2cccc(C#N)c2)[C@@H]1O
    1.8%[87.6 µM], 0.3, 7.4%[87.6 µM], 0.2%[138 µM], i, -0.7%[172 µM]
CCO[C@H]1CN(C(=O)c2ccc(Oc3ccccc3)o2)C[C@@H]1O
    23.7%, -4.7, -1.3%, -11.1%, -12.5%, 6.4%
O=S1(=O)CCC(S(=O)(=O)Nc2ccc(F)cc2)C1 (configuration not stated)
    -7.1%, -12.1, -1.6%, i, -1.1%, 1.0%
CC(C)CCN1CC2(CCCN(C(=O)CCn3cnnc3)C2)CCC1=O (configuration not stated)
    15.7%, 21.9, 6.7%, -20.2%, -0.2%, -1.9%
COc1ccc(CN2CC3(CCN(C(=O)Nc4ccc(OC)c(F)c4)CC3)C2=O)cc1
    3.6%, 10.1, -2.3%, ?, ?, -7.7%
CCCC1=CC2=C(CO1)C(=O)C(C)(OC(=O)c1c(C)cc(OC)cc1O)C(O)C2 (configuration not stated)
    ·, -1.4, 17.8%[23.9 µM], ·, ·, ·
COc1ccc(CCN2CCCC(CN(C)C(=O)c3cnn(C(C)C)c3)C2)cc1 (configuration not stated)
    -13.4%, 7.4, 0.8%, -6.8%, -13.5%, -10.8%
CN(C)S(=O)(=O)N1CC(CNC(=O)C2CC2)C2(CCCCC2)C1 (configuration not stated)
    -6.6%, 14.5, 0.8%, -27.0%, ?, ·
COCC(=O)N1CCC(N2C[C@H](O)C[C@H]2C(=O)NC2CCCCC2)CC1
    -5.9%, 10.9, -12.3%, ?, -20.0%, -10.7%
CS(=O)(=O)N1CCC(CC(=O)NCc2ccccc2)C1 (configuration not stated)
    2.8%, 15.7, -7.3%[12.5 µM], i, -10.9%, 5.0%
COCCCn1c(=O)c(C(=O)Nc2cccc(Cl)c2)nc2cccnc21
    ?, 6.4, -12.2%, -23.2%, ?, ·
Nc1nc(C2CC(NC(=O)Cn3cnc4ccccc4c3=O)C2)cc(=O)[nH]1 (configuration not stated)
    -20.3%, 42.1, 1.3%, -3.2%, 1.9%, 4.9%
CC(C)c1cc(C(=O)NC(C)c2ccccc2-n2cccn2)nc2ncnn12 (configuration not stated)
    -11.7%, -9.2, -4.5%, -1.5%, 1.6%, 11.3%
O=C(O)c1ccc(-c2ccc(C(=O)O)nc2)cc1
    -17.4%[87.6 µM], 13.0, -0.9%[87.6 µM], i, i, ·
COc1ccc(C(=O)N2C(C(=O)N3CCCC3)COC23CCN(C(=O)CC(C)(C)C)CC3)cc1 (configuration not stated)
    -10.3%, 14.2, -3.3%, -11.8%, ?, -8.8%
CCOCCn1cnc(-c2ccccc2)c1-c1cccc(C#N)c1
    -18.5%, 1.9, 5.1%, -26.0%, -26.6%, -0.2%
O=C(NC1CCN(c2cc(-c3ccccc3)[nH]n2)C1)c1cccs1 (configuration not stated)
    5.5%, 18.5, -4.1%, ?, ?, -14.6%
CCOc1ccccc1C(=O)NC1CCN(c2cc(-c3ccc(Cl)cc3)[nH]n2)CC1
    ?, 10.5, ?, ?, ?, -5.2%
CCNC(=O)N1CCC2(CC1)CN(c1ccccc1)C2=O
    14.1%, 13.0, -2.6%, i, -7.1%, -2.2%
COc1ccc(CNC(=O)c2ccc3c(c2)N=C(C)c2c(C)ccc(C)c2S3)cc1
    ?, 6.7&-1.9, -13.6%&1.0%, ?, 10µM*, -7.4%
CN1CC(=O)N(C2CCC2)Cc2c(NCc3ccc(F)cc3)ncnc21
    ?, 5.4, -17.0%, ?, -25.6%, ·
Cc1cccc(OCCc2noc(C3CCCN3C(=O)c3cn(C)cn3)n2)c1 (configuration not stated)
    0.0%, 2.8, 2.3%, 3.0%, 4.3%, 0.0%
COc1ccc(CNC(=O)c2c(C)noc2-c2cccc(F)c2)cc1
    -4.3%, -3.1, 3.8%, -29.0%, -16.8%, -3.0%
Cc1oc2ccn(Cc3ccccc3F)c(=O)c2c1C(=O)N1CCN(c2ccccc2)CC1
    2.6%, 14.1, -8.6%, ?, ?, -7.6%
Cc1ccccc1S(=O)(=O)N1CCC(CCC(=O)NC2CCS(=O)(=O)C2)CC1 (configuration not stated)
    -19.3%, 22.0, 4.0%, i, -2.6%, -1.7%
CC(C)(C)CC(=O)N1CC[C@@H](CC(=O)O)[C@@H](CCN2CCN(c3ccccn3)CC2)C1
    12.4%[87.6 µM], 6.4, 5.9%[87.6 µM], -10.8%[138 µM], -3.0%[172 µM], 14.2%[172 µM]
COc1ccc(-c2ccnc(N[C@H]3CO[C@H]4[C@@H]3OC[C@H]4OC(=O)Nc3cccc(OC)c3)n2)cc1
    ?, -5.5, -2.3%, -17.4%, ?, -4.5%

# Compound profiles (already shown). Order of screens: SNCA expr inh | IP6K1 inh | SNCA viab count | 3T3 cytotox | HEK cytotox | FLuc inh
# COc1ccc(-c2ccnc(N[C@H]3CO[C@H]4[C@@H]3OC[C@H]4OC(=O)Nc3cccc(OC)c3)n2)cc1 is entered as ? | -5.5 | -2.3% | -17.4% | ? | -4.5%
# CCNC(=O)N1CCC2(CC1)CN(c1ccccc1)C2=O is entered as 14.1% | 13.0 | -2.6% | i | -7.1% | -2.2%

# A different layout for 6 compounds above:
structure	SNCA expr inh	IP6K1 inh	SNCA viab count	3T3 cytotox	HEK cytotox	FLuc inh
CN1CC(=O)N(C2CCC2)Cc2c(NCc3ccc(F)cc3)ncnc21	?	5.4	-17.0%	?	-25.6%	·
Cc1cccc(OCCc2noc(C3CCCN3C(=O)c3cn(C)cn3)n2)c1 (configuration not stated)	0.0%	2.8	2.3%	3.0%	4.3%	0.0%
COc1ccc(CNC(=O)c2c(C)noc2-c2cccc(F)c2)cc1	-4.3%	-3.1	3.8%	-29.0%	-16.8%	-3.0%
Cc1oc2ccn(Cc3ccccc3F)c(=O)c2c1C(=O)N1CCN(c2ccccc2)CC1	2.6%	14.1	-8.6%	?	?	-7.6%
Cc1ccccc1S(=O)(=O)N1CCC(CCC(=O)NC2CCS(=O)(=O)C2)CC1 (configuration not stated)	-19.3%	22.0	4.0%	i	-2.6%	-1.7%
CC(C)(C)CC(=O)N1CC[C@@H](CC(=O)O)[C@@H](CCN2CCN(c3ccccn3)CC2)C1	12.4%[87.6 µM]	6.4	5.9%[87.6 µM]	-10.8%[138 µM]	-3.0%[172 µM]	14.2%[172 µM]
